# Six1-Eya2 blk: blocks human Six1 binding to Eya2; AlphaScreen GST-Six1/His-Eya2 binding, biochemical; hits give low values; control for the full effect not named in the record; hit rate 0.56% among 360,000; activity change, % (no concentration beside the values); Q15475+O00167; in the data active = activity change below about -65%; inconclusive = about -30% to -65%; inactive = above about -30%; also: % is scaled to controls: 0 for no effect and ±100 for the full control effect; compound concentration not given in the record
# Target sequence (O00167 whole entry, looked up): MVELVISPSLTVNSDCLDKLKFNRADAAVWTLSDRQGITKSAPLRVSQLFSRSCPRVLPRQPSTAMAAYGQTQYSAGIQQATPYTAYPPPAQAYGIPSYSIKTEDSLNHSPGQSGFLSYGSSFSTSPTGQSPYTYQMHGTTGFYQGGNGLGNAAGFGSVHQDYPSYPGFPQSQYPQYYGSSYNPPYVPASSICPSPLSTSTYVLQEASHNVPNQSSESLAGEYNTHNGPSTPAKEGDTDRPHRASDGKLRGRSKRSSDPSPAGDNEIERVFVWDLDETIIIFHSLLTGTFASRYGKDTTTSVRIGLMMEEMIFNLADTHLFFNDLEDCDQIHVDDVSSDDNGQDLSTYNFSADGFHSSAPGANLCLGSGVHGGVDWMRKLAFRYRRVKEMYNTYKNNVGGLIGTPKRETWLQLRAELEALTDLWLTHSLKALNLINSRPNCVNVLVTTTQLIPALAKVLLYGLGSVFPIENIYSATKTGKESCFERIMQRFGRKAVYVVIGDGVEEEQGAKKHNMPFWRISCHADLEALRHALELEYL
# Target sequence (Q15475 whole entry, looked up): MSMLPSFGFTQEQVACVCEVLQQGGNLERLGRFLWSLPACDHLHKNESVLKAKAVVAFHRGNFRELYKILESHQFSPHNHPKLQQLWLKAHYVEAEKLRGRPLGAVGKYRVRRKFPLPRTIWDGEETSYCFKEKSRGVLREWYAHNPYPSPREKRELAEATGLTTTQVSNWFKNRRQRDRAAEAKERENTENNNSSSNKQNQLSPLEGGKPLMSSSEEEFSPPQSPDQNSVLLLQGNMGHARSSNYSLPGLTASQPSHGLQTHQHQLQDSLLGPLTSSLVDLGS
#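 Homogeneous AlphaScreen proximity assay pairing GST-Six1 with His-tagged Eya2 (added as 5X mix: 250 nM and 500 nM) in 50 mM Tris pH 8.0, 300 mM NaCl, 1 mM TCEP. Glutathione donor and nickel acceptor beads; 1 h, 37 °C, dark.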
# CtBP-E1A inh: CtBP/E1A binding inhibition | AlphaScreen GST-E1A/His-CtBP binding, 1536-well; hits give low values; control for the full effect not named in the record | activity change, % (no concentration beside the values) | hit rate 0.49% among 340,000; in the data active means activity change below about -65%; inconclusive means about -30% to -65%; inactive means above about -30%; also: % is scaled to controls: 0 for no effect and ±100 for the full control effect; compound concentration not given in the record
#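 Homogeneous bead-based format: GST-tagged E1A captured on glutathione donor beads, His-tagged CtBP on nickel acceptor beads; compounds precede bead addition by 2 h at 37 °C.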
# PINK1 expr mod: changes PINK1 expression; PINK1 immunofluorescence, high-content cytometry, 24 h; Potency, µM (titrated, usually from 76.6 µM), inactives show at the highest dose activation (PINK1 increase), hits mostly activators; hit rate 0.2% among 410,000; active = well fitted activation curve with a large enough effect; inconclusive = small, poorly fitted or top-dose-only effect; inactive = flat fitted curve, though single readings scatter; cell line not stated here;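 also: potency is read from the fitted curve at half-maximal effect; % of control where 0% means no effect; nearly all actives have a fitted effect of over 65% in size; a mitochondrial uncoupler was the plate control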
#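 Compound titrations (5 concentrations, 24 h) on a stable cell line; DMSO and CCCP controls. Endpoint: fixed-cell PINK1 immunofluorescence with mitochondrial, cell and nuclear markers, scanned by microplate cytometer.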
# TRPML1 agonist: activates the human TRPML1 channel; TRPML1-expressing cells, Ca2+ dye fluorescence, FDSS; host cell line not named in the record; reference of the full effect not given here; Q9GZU1; activation, % (test concentration not listed); hit rate 0.12% among 410,000; in the data active = activation above about 50%; inconclusive = about 30% to 50%; inactive = below about 30%; also: 0% is about no effect; the text of the record puts the active cut at 80%
#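 Calcium fluorescence on an FDSS kinetic reader gave the read-out. Tet-induced TRPML1-DL cells were plated overnight, dye-loaded (Ca8 with quencher, 45-90 min, room temperature, dark), then read 110 s after compound addition, and again 110 s after 4uM final 54-4 (EC80).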
# TRPML1 inh: inhibitors of human TRPML1 channel; TRPML1-inducible cells, Ca2+ dye fluorescence, FDSS; hits give low values; inhibition of EC80 agonist-evoked calcium signal; activity change, negative = inhibition, % (no concentration beside the values); hit rate 0.02% among 390,000; in the data active means activity change below about -50%; inconclusive means about -30% to -50%; inactive means above about -30%;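 also: stimulus is agonist 54-4 at its EC80 concentration; % is scaled to controls: 0 for no effect and ±100 for the full control effect; compound concentration not given in the record; the text of the record puts the active cut at -80%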
#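 TRPML1-DL cells, Tet-induced overnight (~16 h, 37 °C) at 1,500 cells/well, were loaded with Ca8 no-wash dye plus quencher for 45-90 min at room temperature. Compounds were pinned during FDSS kinetic reading; agonist 54-4 at EC80 (4 uM final) then added.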
# D2 agonist: agonists of human D2 dopamine receptor (beta-arrestin); P14416; DiscoveRx PathHunter D2 beta-arrestin, luminescence, 90 min; 100% = 57 uM dopamine signal; activation, % (no concentration beside the values); hit rate 0.084% among 360,000; AID 624465; in the data active = activation above about 40%; inconclusive = about 15% to 40%; inactive = below about 15%; also: compound concentration not given in the record; the text of the record calls up to 30% inactive
#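 DiscoveRx PathHunter D2 beta-arrestin cells (2,100/well) attached overnight, then compound-stimulated 90 min at 37 C in HBSS/10 mM HEPES/0.1% Tween-20 buffer; beta-galactosidase complementation read by luminescence after 1 h at ambient temperature. Dopamine 57 uM final (EC100) as control.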
# An asterisk follows results filed as active; ? = inconclusive; . = no result given; [ ] = dose if it differs, or a comment.
SMILES,Six1-Eya2 blk,CtBP-E1A inh,PINK1 expr mod,TRPML1 agonist,TRPML1 inh,D2 agonist
C/C(CC1CC(C)OC1=O)=N\NC(N)=S (configuration not stated),6.8,.,1.0%,0.2,13.8,-0.9
COC(=O)c1ccc2c(=O)n(-c3ccccc3F)c(=S)[nH]c2c1,0.9,8.3,4.8%,-0.5,-9.4,-0.1
c1ccc(-c2nnc(CSc3nnc(-c4cccs4)o3)o2)cc1,2.3,-8.8,-3.3%,1.7,-3.7,0.4
Cc1cc(C)c(S(=O)(=O)Nc2ccccc2-c2ccccc2)c(C)c1,-2.0,1.2,?,0.9,6.3,-6.6
CCOc1ccccc1NC(=O)c1c(NC(=O)COc2ccc(Cl)cc2)sc2c1CCCCC2,.,.,-0.1%,-0.2,7.7,.
COC(=O)c1ccccc1S(=O)(=O)N1CCC(C(=O)NCc2ccccn2)CC1,-7.6,7.0,-0.5%,-0.5,3.7,-1.7
Cn1ncc2c(N3CCC(Cc4ccccc4)CC3)ncnc21,6.6,-4.9,1.0%,1.8,-9.4,1.9
O=C(N/N=C/c1ccncc1)c1ccc(COc2cccc3cccnc23)cc1,-6.8,-7.9,4.6%,0.9,-12.4,1.7
COc1ccccc1Cc1c(-c2cccc(Cl)c2)nc2c(C)cc(Br)cn12,10.8,-8.1,3.9%,0.3,.,.
O=C(NCCc1nc2ccccc2n1Cc1ccccc1)c1ccco1,.,.,2.3%,-0.4,7.6,.
COc1ccc2nc3c(nc2c1)CCCC3,1.2,-10.1,1.2%,-0.9,21.8,-0.8
COc1ccc(Nc2ncc3c(n2)CCN(Cc2ccc(Br)s2)C3)c(OC)c1,.,.,4.2%,-0.7,-12.7,.
N=c1sccn1CC(=O)NC(c1ccccc1)c1ccccc1,-19.0,-5.0,-0.3%,1.1,-3.0,-4.1
CC(=O)c1c(C)[nH]c2ccccc2c1=O,1.9,-0.1,-2.6%,-1.3,8.0,2.8
CCc1nnc(NC(=O)C2CSC3(C)CCC(=O)N23)s1 (configuration not stated),2.9,8.4,-0.2%,1.1,1.8,-1.4
CCCC12CN3CC(C)(CN(C1)C3c1ccc(OC(C)C)cc1)C2=O (configuration not stated),5.7,5.6,3.4%,0.0,-2.6,-1.8
CCOC(=O)c1cc(OC(=O)c2ccccc2)n(-c2ccccc2)n1,3.2,2.3,3.2%[38.3 µM],0.1,-9.7,-2.2
Cc1ccsc1/C=C1\SC(=S)N(CC2CCCO2)C1=O (configuration not stated),0.8,-11.1,0.1%,0.8,31.2,-3.5
COc1ccc(Br)cc1C(=O)Nc1ccc(NC(=O)c2ccco2)cc1,-12.8,-9.5,9.5%,1.1,17.0,1.3
COc1ccc(-c2[nH]ncc2CN2CCCOc3c(cccc3OC)C2)c(OC)c1,-0.1,-12.4,3.2%,-1.0,16.1,-6.0
C/C(=N\NC(=O)c1nnn(-c2nonc2N)c1-c1ccc2c(c1)OCO2)c1cccs1,3.2,0.9,9.7%,2.5,3.6,-1.4
COc1ccccc1NC(=S)N(Cc1ccco1)Cc1cc2cc(C)ccc2[nH]c1=O,3.8,0.2,6.5%,3.6,18.1,4.9
Cc1cc(C)c(NC(=O)CCN2C(=O)c3ccccc3Sc3ncccc32)c(C)c1,.,.,-0.6%,0.3,8.2,.
CCCCn1c(N)c(N(CC(C)C)C(=O)C2CCCO2)c(=O)[nH]c1=O (configuration not stated),5.0,6.1,1.6%,-0.1,-3.1,2.5
CCOc1cc(C2C(C(=O)OC(C)C)=C(C)N=C3SCCC(=O)N32)ccc1OC(C)=O (configuration not stated),-1.9,3.1,-0.9%,-0.1,3.5,-1.8
CC(=O)c1cccc(NC(=O)C(C)OC(=O)CNC(=O)c2ccc(C)s2)c1 (configuration not stated),-5.1,.,2.3%,1.6,-9.8,-6.2
CC1(C)CC(N(Cc2ccc(F)cc2)C(=O)c2ccc(F)cc2)CCO1 (configuration not stated),-5.1,4.2,-1.5%,0.4,9.4,-0.7
O=S(=O)(c1ccc(SCc2cccc(Cl)c2)nc1)N1CCCC1,41.9,45.5,2.4%,3.4,45.6,2.5
O=C(Nc1ccc(Br)cc1F)c1nc[nH]c1C(=O)N1CCc2ccccc2C1,0.8,5.4,2.6%,.,.,-2.0
COc1ccccc1N(CC(=O)NC1CCCC1)C(=O)CNC(=O)c1cccs1,-8.4,-3.3,-0.1%,-0.3,-7.9,-2.6
CCN(C(=O)COC(=O)CCS(=O)(=O)c1ccc(C)cc1)C1CCS(=O)(=O)C1 (configuration not stated),4.5,5.0,0.4%,0.4,-0.6,-4.3
CN(C(=O)c1ccncc1)C1CCS(=O)(=O)C1 (configuration not stated),0.4,18.9,0.7%[38.3 µM],2.1,1.7,-0.5
CCCOc1ccc(-c2nc(SC)[nH]c(=O)c2C#N)cc1OC,.,.,3.9%,0.7,22.9,.
CCC(O)CNC(=O)CCc1nnc(C2(c3ccc(Cl)cc3)CCC2)o1 (configuration not stated),1.5,3.9,0.0%,-0.4,-0.6,1.7
Cc1ccccc1/C=C/C(=O)c1ccc([N+](=O)[O-])o1,-0.8,4.7,0.2%,-0.9,-8.8,9.4
COc1ccc(CCNS(=O)(=O)c2cccc([N+](=O)[O-])c2)cc1,-6.3,-1.6,0.1%,1.1,5.7,-0.6
Cc1cc(Br)c2c(c1)C(O)(N1CCCCC1C)C(=O)N2 (configuration not stated),-1.5,11.5,-0.8%,-0.4,-15.4,5.9
COc1c(C)cccc1C(=O)NC(=S)Nc1ccccc1N1CCCC1,?,?,4.9%,0.7,8.5,-3.6
COc1ccc(/C=C/C(=O)NCCCc2ccccc2)cc1,9.1,1.3,-1.4%,-0.2,15.2,-0.4
Cc1ccc(NS(=O)(=O)c2ccc3c(c2)oc(=O)n3C)cc1,1.7,-4.9,0.5%,0.3,13.9,-1.8
CC(C)n1ncc2c(C(=O)NCc3ccccc3CN(C)C)cc(C3CC3)nc21,-1.2,-0.7,6.6%,0.7,-6.9,-2.5
COc1ccc(C(=O)NC(=S)Nc2ccc(Cl)cn2)cc1OC,-6.3,2.7,7.9%,2.2,3.4,0.0
Cc1cc(SCC#N)n2nc(C)c(-c3ccc(Cl)cc3)c2n1,0.7,-5.1,-3.9%[38.3 µM],-0.4,0.4,0.8
CN1CCN(CC(O)Cn2c3ccccc3c3ccccc32)CC1 (configuration not stated),-0.1,.,0.1%,1.2,-19.3,?
O=C(c1cc(Cl)ccc1O)N1CCN(S(=O)(=O)Cc2ccccc2)CC1,-2.5,-4.0,-0.8%,3.7,-7.2,1.9
CCc1c(C)sc2c1CCN(C(=O)Nc1cc(C)ccc1OC)C2c1ccc(F)cc1 (configuration not stated),.,.,1.2%,2.7,5.6,.
COc1cccc(CNC(=O)Cc2csc3nc(-c4ccccc4)cn23)c1,.,.,2.6%,0.2,-12.4,.
COc1cccc(OC)c1C(=O)Nc1ccc(N2CCN(C(=O)c3cccs3)CC2)cc1,-0.4,-26.8,-0.4%,0.7,-17.0,-4.4
Cn1cc(S(=O)(=O)N2CCCC2)cc1C(=O)Nc1ccc(F)cc1F,.,.,0.0%,-0.4,7.8,.
NC(=O)C(=O)N/N=C/c1cccc(C(F)(F)F)c1,6.4,4.4,1.5%,0.8,14.5,0.0
Cc1cc(C(=O)COC(=O)c2ccc(O)cc2)c(C)n1CC1COc2ccccc2O1 (configuration not stated),-10.7,-11.6,-1.2%,2.0,27.3,4.4
Cn1c(=NCC(O)COc2ccccc2)sc2ccccc21 (configuration not stated),-11.0,-11.7,3.9%,0.2,11.5,-2.9
COc1ccc(CCC(N)=O)cc1OC,5.7,13.0,-0.1%,0.0,7.2,-3.8
CC1COC(Cn2c3ccccc3c3ccccc32)O1 (configuration not stated),15.1,12.0,4.4%,1.3,1.2,2.4
Cc1cc2nc3c(=O)n(C)c(=O)n(C)c3nc2cc1N=CN(C)C,.,.,19.1%,12.5,-3.0,.
CC(=O)NC1CCN(CC(=O)Nc2cccc([N+](=O)[O-])c2)CC1,0.4,4.7,0.0%,-0.6,-14.5,-4.6
CCOc1ccc(NC(=S)Nc2ccc(OC)cc2)cc1,-6.5,-2.1,0.0%,-0.9,17.6,-5.0
CCOC(=O)c1cnn(-c2cc(C)nc3c(-c4ccccc4)c(C)nn23)c1N,-4.9,10.0,?,-0.1,3.0,-2.6
O=C(COc1ccc2ccccc2c1)NC1CC(=O)N(c2cccc(F)c2)C1 (configuration not stated),.,.,1.1%,0.6,5.5,.
COc1ccccc1-n1c(/C=C/c2c(C)n(C)c3ccccc23)nc2ccccc2c1=O,.,.,-0.2%,6.9,12.3,.

# Pulled one by one from above, 2 records:
SMILES,Six1-Eya2 blk,CtBP-E1A inh,PINK1 expr mod,TRPML1 agonist,TRPML1 inh,D2 agonist
COc1cccc(CNC(=O)Cc2csc3nc(-c4ccccc4)cn23)c1,.,.,2.6%,0.2,-12.4,.
CC(C)n1ncc2c(C(=O)NCc3ccccc3CN(C)C)cc(C3CC3)nc21,-1.2,-0.7,6.6%,0.7,-6.9,-2.5

# The list continues:
SMILES,Six1-Eya2 blk,CtBP-E1A inh,PINK1 expr mod,TRPML1 agonist,TRPML1 inh,D2 agonist
COc1ccc(C(=O)NNC(=O)C(=O)/C=C(\O)c2ccc(C)cc2)cc1,-16.7,-8.7,-1.1%,-1.2,11.3,-2.9
Cc1ccnc(NS(=O)(=O)c2ccc(NS(=O)(=O)c3cccs3)cc2)n1,-6.0,-1.3,-2.1%,0.0,2.0,1.4
COc1ccc(CCN2C(=O)c3cccc4c(C(=O)N5CCCCC5)ccc(c34)C2=O)cc1OC,-0.1,4.3,1.1%,-0.9,-1.3,1.6
CCn1c(SCC(=O)NCCc2ccccc2)nnc1-c1cccs1,-0.4,4.9,-4.1%,-1.0,-6.6,-3.3
COc1cccc(NC(=O)N2CCN(C(=O)C(Cc3ccc(OC)c(OC)c3)NC(C)=O)CC2)c1 (configuration not stated),-1.4,-0.1,0.8%[38.3 µM],-0.1,-17.3,-2.9
CSc1ccc(CN2CCC(C)(Oc3ccccc3F)C2)cc1 (configuration not stated),-19.3,-16.5,?,-1.2,.,2.7
CC12CCC(=O)N1C(C(=O)NCCN1C(=O)S/C(=C\c3ccccc3F)C1=O)CS2 (configuration not stated),-0.7,4.6,-1.5%,0.2,7.2,-2.0
O=C(CC(Nc1cccc(Cl)c1Cl)C(=O)O)c1ccccc1 (configuration not stated),-3.4,12.1,0.5%,-0.6,4.4,-4.6
CC(=O)OCCc1[nH]c2ccccc2c1C,5.3,5.8,2.6%,-1.1,29.7,-0.3
COc1ccc(CN2CCN(C(=O)CN3C(=O)C4C5C=CC(C5)C4C3=O)CC2)c(OC)c1OC (configuration not stated),1.8,0.2,1.2%,-0.2,-4.7,-2.5
COc1ccc(/C=N/N=C2/NC(=O)C(c3ccccc3)(c3ccccc3)S2)cc1,3.8,6.4,3.0%[38.3 µM],0.4,-8.0,0.2
O=C(CNC(=O)c1ccccn1)N/N=C/c1ccc2c(c1)OCO2,-2.5,9.0,-1.2%,1.5,0.0,0.8
CCOC(=O)[C@@H]1[C@H]2COc3ccccc3[C@H]2N2C(=O)N(c3cccc(F)c3)C(=O)[C@]12C,2.1,1.9,-0.5%,0.7,-4.8,-1.1

# High-throughput results deposited in PubChem by National Center for Advancing Translational Sciences (NCATS).
